HCMV UL50-53 inh: inhibitors of HCMV UL50-UL53 nuclear egress complex interaction; 0.15% of 190,000 active; AID 1918969; HTRF UL50-UL53 interaction, normalized percent inhibition; inhibition, % (no concentration beside the values);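 active means both replicates at 50% or more, plus weaker picks with an unusually low signal ratio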;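 further: stock transfer was 100 nL into about 20 µL; 0% = negative control wells and 100% = wells with untagged competitor protein; inactives centre near -12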
GIV-Gai inh: GIV-Galpha-i interaction inhibition; percent of control (FP), % (concentration not given with the values); 0.42% of 210,000 active; Galpha-i3/FITC-GIV peptide fluorescence polarization, 90 min; hits give low values; scaled: aluminum fluoride 0%, vehicle 100%; AID 1224905; P08753;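 active means replicate mean at 85% of control or lower, very high polarization wells dropped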;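 further: wells of about 15 µL received 100 nL stock; the first replicate is given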
Target sequence (P08753 whole entry, looked up): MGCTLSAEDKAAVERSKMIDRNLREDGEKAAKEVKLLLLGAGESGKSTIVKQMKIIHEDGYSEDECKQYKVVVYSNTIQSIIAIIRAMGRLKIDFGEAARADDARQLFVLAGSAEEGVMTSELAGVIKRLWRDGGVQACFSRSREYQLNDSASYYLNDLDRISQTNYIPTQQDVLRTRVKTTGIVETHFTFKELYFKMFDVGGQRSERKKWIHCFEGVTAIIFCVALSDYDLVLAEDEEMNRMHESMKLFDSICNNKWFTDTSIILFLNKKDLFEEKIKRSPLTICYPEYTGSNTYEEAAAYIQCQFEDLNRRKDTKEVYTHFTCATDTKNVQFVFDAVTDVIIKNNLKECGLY
Sa growth 42C: S. aureus growth inhibition; S. aureus RN4220 growth, OD600, 20 h, 42 °C; hits give low values; relative growth, % (concentration not given with the values); 0.53% of 170,000 active;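 active means growth at 42 °C up to 50% and 20 or more points under that at 30 °C, or under 10% at both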;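 further: 300 nL library stock went into each well; scaled to the means of positive and negative controls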
Sa growth 42C second temp: further read-out of Sa growth 42C, marked with its call; relative growth, %; measured here: growth at 30 °C;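 optical density after 20 h as mean of two plates; 100% = untreated growth and lower means inhibition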
The depositor's hits bear a star; x = not tested or not shown.

Assay codes: A = HCMV UL50-53 inh; B = GIV-Gai inh; C = Sa growth 42C; D = Sa growth 42C second temp
CCOc1ccc(NC(=O)CCCc2nc(-c3cc4ccc(C)cc4[nH]c3=O)no2)cc1
  A: -38.3 | B: 108.5 | C: x | D: x
COc1ccc(C(=O)CSc2nc3nc(C)cc(C)c3c(=O)[nH]2)cc1OC
  A: -34.1 | B: 104.5 | C: 110.2 | D: 90.8
Cc1sc2ncn3cnnc3c2c1-c1ccccc1
  A: -75.1 | B: x | C: 83.5 | D: 79.6
COc1cccc(C(=O)NC2=NC(c3ccc(N(C)C)cc3)CC(=O)N2)c1 (stereo unspecified)
  A: 1.5 | B: 102.9 | C: 87.9 | D: 87.7
O=C1CC(NNc2nc3ccccc3s2)C(=O)N1c1ccccc1 (stereo unspecified)
  A: -11.7 | B: 104.0 | C: 82.1 | D: 82.1
CN(C)c1ccc(CN(CC2CCCO2)C(=O)COc2ccc(Br)cc2)cc1 (stereo unspecified)
  A: -19.8 | B: 105.6 | C: x | D: x
CSc1nnc2nc3c(nn12)c1ccccc1n3C
  A: x | B: 101.4 | C: 86.1 | D: 93.0
Cc1ccc(S(=O)(=O)N2CCN(Cn3cnc4ccccc43)CC2)cc1C
  A: -35.5 | B: 105.0 | C: 88.2 | D: 84.2
O=C1/C(=C/c2ccc(N3CCOCC3)cc2)CCC1C1CCCC1 (stereo unspecified)
  A: x | B: 109.6 | C: 83.6 | D: 97.1
Cc1ccc(S(=O)(=O)c2cn(CC(=O)NC3CCCC3)c3nc(C)ccc3c2=O)cc1
  A: -40.4 | B: 116.1 | C: 102.2 | D: 89.6
Cc1ccc(C(=O)OCC(=O)c2cc(C)n(Cc3ccco3)c2C)cc1
  A: -32.1 | B: x | C: 79.8 | D: 95.4
CCC(CO)NC(=O)c1cn(-c2ccccc2)nc1-c1cccs1 (stereo unspecified)
  A: -22.1 | B: x | C: 109.6 | D: 90.8
O=C(CSc1nc2cc3c(cc2c(=O)n1Cc1ccc2c(c1)OCO2)OCO3)NCCc1ccccc1
  A: -4.9 | B: 105.6 | C: 101.4 | D: 93.4
Cc1cc(Sc2ccc(N)cc2)n2ncnc2n1
  A: -27.1 | B: 97.9 | C: x | D: x
O=S(=O)(c1ccc2[nH]c3c(c2c1)CCCC3)N1CCN(c2cccc(C(F)(F)F)c2)CC1
  A: x | B: 104.6 | C: 91.0 | D: 86.8
CCCOc1ccc(-c2cc(C(=O)NCCCN3CCOCC3)c3ccccc3n2)cc1
  A: -59.3 | B: 103.7 | C: x | D: x
CCN(CC)C(=O)c1nn(-c2ccc(OC)cc2)c(=O)c2c1c1ccccc1n2C
  A: x | B: 102.4 | C: 99.6 | D: 91.7
O=C(COCc1cc(-c2cccs2)on1)NCc1ccc(F)cc1
  A: x | B: 99.2 | C: 101.8 | D: 92.4
O=C(CSc1ncnc2sc3c(c12)CCCC3)N1CCCC1
  A: -37.0 | B: x | C: 76.9 | D: 68.2
NC(/N=C/c1ccccc1O)=N\S(=O)(=O)c1ccc(N=Cc2ccccc2O)cc1
  A: 68.2 | B: 97.2 | C: 86.1 | D: 85.0
Cc1ccc(C)c(S(=O)(=O)c2nnn3c2nc(NCc2cccs2)c2sccc23)c1
  A: x | B: 103.1 | C: 106.9 | D: 91.6
NC(=O)C1CCN(S(=O)(=O)Cc2ccccc2)CC1
  A: -9.6 | B: 106.9 | C: x | D: x
CC(=O)NCCc1c[nH]c2ccc(O)cc12
  A: -34.4 | B: 102.1 | C: x | D: x
COc1ccc(C2=NN3C(C2)c2cc(OC)ccc2OC3c2ccc(C(C)(C)C)cc2)cc1 (stereo unspecified)
  A: -6.8 | B: 104.1 | C: x | D: x
CCc1ccc(NC(=O)CCCc2nc(-c3ccco3)no2)cc1
  A: -23.1 | B: 101.7 | C: 99.2 | D: 87.3
CC1CCCN(S(=O)(=O)c2ccc(N3CCOCC3)nc2)C1 (stereo unspecified)
  A: -3.9 | B: 101.3 | C: 99.7 | D: 66.2
O=C(Cc1ccccc1)N1CCN(c2cc(C(F)(F)F)nc3ccccc23)CC1
  A: 6.1 | B: 101.8 | C: 109.8 | D: 102.8
CCOC(=O)C1CCCN(C(=O)c2cc3cc4ccc(OC)cc4nc3o2)C1 (stereo unspecified)
  A: x | B: 108.5 | C: 99.2 | D: 90.4
Cc1ccc(CNc2ccc3nnc(-c4ccccc4)n3n2)cc1
  A: 1.4 | B: 104.0 | C: 100.8 | D: 88.4
Cc1nc(SCC(=O)Nc2ccccn2)n[nH]1
  A: -15.8 | B: 100.9 | C: 91.8 | D: 78.7
CCc1cnc2c(c1SCC(=O)Nc1ccc(C)cc1C)c(=O)n(C)c(=O)n2C
  A: x | B: 98.0 | C: 142.3 | D: 87.5
CC(=O)NC1C(=O)N(c2ccccc2)N=C1C (stereo unspecified)
  A: 3.4 | B: 102.6 | C: 123.1 | D: 75.5
CCOc1ccc(CNC(=O)C2Cc3ccccc3N2C(=O)CC)cc1OC (stereo unspecified)
  A: x | B: 97.7 | C: 91.0 | D: 89.2
CCN1CCN(c2ccc(Nc3ccnc4cc5ccccc5cc34)cc2)CC1
  A: x | B: 100.9 | C: 98.4 | D: 90.9
CCN(CC)c1ccc2cc(-c3csc(-c4nc(-c5cc6ccc(N(CC)CC)cc6oc5=O)cs4)n3)c(=O)oc2c1
  A: -0.5 | B: 109.2 | C: x | D: x
S=c1[nH]nc(Cn2cnc3ccccc32)n1-c1ccccc1
  A: x | B: 101.2 | C: 80.3 | D: 94.4
CCCCSc1nnc2c(n1)OC(c1cc(Br)c(O)c(OC)c1)Nc1ccccc1-2 (stereo unspecified)
  A: -42.7 | B: 103.6 | C: x | D: x
COc1ccc(OCc2nnc(SC(C)C(=O)Nc3ccc(N4CCOCC4)cc3)n2C)cc1 (stereo unspecified)
  A: -35.9 | B: x | C: 80.4 | D: 88.4
O=C(Cn1ccc2ccccc21)Nc1cccc(C(F)(F)F)c1
  A: -16.9 | B: x | C: 79.5 | D: 94.3
Cc1cccc(CSCc2ccc(C(=O)NCCc3ccccc3)o2)c1
  A: x | B: 96.5 | C: 101.2 | D: 87.4

Of the compounds above, four contain fluorine:
Assay codes: A = HCMV UL50-53 inh; B = GIV-Gai inh; C = Sa growth 42C; D = Sa growth 42C second temp
O=S(=O)(c1ccc2[nH]c3c(c2c1)CCCC3)N1CCN(c2cccc(C(F)(F)F)c2)CC1
  A: x | B: 104.6 | C: 91.0 | D: 86.8
O=C(COCc1cc(-c2cccs2)on1)NCc1ccc(F)cc1
  A: x | B: 99.2 | C: 101.8 | D: 92.4
O=C(Cc1ccccc1)N1CCN(c2cc(C(F)(F)F)nc3ccccc23)CC1
  A: 6.1 | B: 101.8 | C: 109.8 | D: 102.8
O=C(Cn1ccc2ccccc21)Nc1cccc(C(F)(F)F)c1
  A: -16.9 | B: x | C: 79.5 | D: 94.3

Among those listed so far, these have bromine:
Assay codes: A = HCMV UL50-53 inh; B = GIV-Gai inh; C = Sa growth 42C; D = Sa growth 42C second temp
CN(C)c1ccc(CN(CC2CCCO2)C(=O)COc2ccc(Br)cc2)cc1 (stereo unspecified)
  A: -19.8 | B: 105.6 | C: x | D: x
CCCCSc1nnc2c(n1)OC(c1cc(Br)c(O)c(OC)c1)Nc1ccccc1-2 (stereo unspecified)
  A: -42.7 | B: 103.6 | C: x | D: x

Further structures
Assay codes: A = HCMV UL50-53 inh; B = GIV-Gai inh; C = Sa growth 42C; D = Sa growth 42C second temp
CCOC(=O)Cn1nnc(-c2cccs2)n1
  A: 1.9 | B: 107.5 | C: 106.3 | D: 98.7
CC(C)(C)OC(=O)N1CCC(c2c(C(=O)Nc3ccc4c(c3)OCCO4)cnn2-c2ccc(F)cc2F)CC1
  A: x | B: 106.6 | C: 107.2 | D: 86.0
CCN1C(=O)SC(CC(=O)O)C1=O (stereo unspecified)
  A: -15.2 | B: 105.2 | C: 110.2 | D: 106.0
CCCn1c(C)cc(/C=C(\C#N)C(=O)N(CC)c2nc3c(C)cccc3s2)c1C
  A: 19.4 | B: x | C: 85.3 | D: 95.7
O=C(Nc1cc(Cl)cc(Cl)c1)c1ccc(F)c(S(=O)(=O)NC2CCCC2)c1
  A: x | B: 104.9 | C: 118.9 | D: 84.9
Cn1c(C(=O)O)c(CNCCC2=CCCCC2)c2ccccc21
  A: x | B: 101.6 | C: 102.1 | D: 90.2
COc1ccc(N2CCN(C(=O)CSc3c4c(nc5ccc(Cl)cc35)CCCC4)CC2)cc1
  A: -23.3 | B: 106.2 | C: 107.8 | D: 77.8
Cc1cc(C)n(CC(=O)O)c(=O)n1
  A: -2.5 | B: 101.2 | C: 122.8 | D: 95.5
COc1ccccc1N1CCN(CC(O)c2c[nH]c3ccc(F)cc23)CC1 (stereo unspecified)
  A: -27.4 | B: 109.8 | C: x | D: x
O=C(CN1CCCc2ccccc21)NN1C(=O)NC2(CCCCC2)C1=O
  A: -29.8 | B: x | C: 93.7 | D: 87.0
Cc1ccc(Cl)cc1N1CC(O)=C(c2nc3ccccc3c(=O)[nH]2)C1=N
  A: 2.3 | B: 100.3 | C: 101.6 | D: 54.3
Cc1nn(C)c(C)c1NS(=O)(=O)/C=C/c1ccccc1
  A: -6.6 | B: x | C: 97.1 | D: 94.7
COc1ccc(C(=O)OCC[N+]2(C)CCOCC2)cc1
  A: x | B: 103.5 | C: 95.8 | D: 85.2
CCc1c(C)c(C#N)c2nc3ccccc3n2c1N1CCCC1
  A: -10.2 | B: 101.2 | C: 93.9 | D: 90.6
CC(C)(CO)NC(=S)NCC1CCCO1 (stereo unspecified)
  A: -34.4 | B: 100.5 | C: 87.2 | D: 85.8
Cc1ccc(Cn2c(C)c(CNC3CCCCC3)c(C(=O)O)c2C)cc1
  A: -21.6 | B: 103.2 | C: 105.8 | D: 88.0
O=C(COC(=O)c1ccc(Cl)cc1)NCC1CCCCC1
  A: -22.6 | B: x | C: 93.5 | D: 85.2
O=C(CSc1nc2cc3ccccc3cc2[nH]1)Nc1cccc(C(F)(F)F)c1
  A: -17.6 | B: 104.1 | C: 102.1 | D: 96.9
O=C(CSc1nc2ccccc2o1)Nc1cc(Cl)ccc1Oc1ccccc1
  A: -11.2 | B: 109.5 | C: x | D: x
Cc1ccc(CN2CC(C(=O)NCc3ccc(S(N)(=O)=O)cc3)CC2=O)cc1 (stereo unspecified)
  A: 4.7 | B: x | C: 82.5 | D: 97.2
CCOc1ccc(-c2c(C#N)c(N)nc(SCC(=O)c3ccc([N+](=O)[O-])cc3)c2C#N)cc1
  A: -18.9 | B: 105.3 | C: x | D: x
COc1ccc(N2CCN(Cc3cc(C(C)C)c(C)cc3O)CC2)cc1
  A: 6.4 | B: x | C: 82.4 | D: 96.3
Cc1cc(NC(=O)CCCC(=O)O)n(C)n1
  A: -11.0 | B: 104.6 | C: 109.1 | D: 89.9
CC(C)n1c(=O)sc2cc(NS(=O)(=O)c3ccc4c(c3)n(C)c(=O)n4C)ccc21
  A: 15.5 | B: 108.4 | C: x | D: x
O=C(NCc1ccc2c(c1)OCO2)c1cc(-c2ccncc2)n[nH]1
  A: -7.8 | B: 105.1 | C: x | D: x
COC(=O)c1ccccc1NC(=O)c1nc2ncccn2n1
  A: 1.8 | B: 106.8 | C: 102.0 | D: 97.8
COc1cc(C=C2C(=O)NC(=O)NC2=O)ccc1OCCOc1ccc(C(C)(C)C)cc1
  A: 4.7 | B: 95.4 | C: x | D: x
O=C(CSc1nc(-c2ccccc2)cs1)N1CCN(S(=O)(=O)c2ccccc2)CC1
  A: -23.5 | B: x | C: 97.0 | D: 102.8
O=c1nc2n(c3sc4c(c13)CCCC4)CC(O)=C2c1nc2ccccc2s1
  A: -19.7 | B: x | C: 108.3 | D: 86.0
C=CCC(CN)(CC=C)c1ccc(OC)c(OC)c1
  A: -14.8 | B: 107.9 | C: 85.2 | D: 86.6

3 of these compounds in a different format:
canonical_smiles	HCMV UL50-53 inh	GIV-Gai inh	Sa growth 42C	Sa growth 42C second temp
CCN1C(=O)SC(CC(=O)O)C1=O (stereo unspecified)	-15.2	105.2	110.2	106.0
CCCn1c(C)cc(/C=C(\C#N)C(=O)N(CC)c2nc3c(C)cccc3s2)c1C	19.4	x	85.3	95.7
O=C(Nc1cc(Cl)cc(Cl)c1)c1ccc(F)c(S(=O)(=O)NC2CCCC2)c1	x	104.9	118.9	84.9

Continuation.
Assay codes: A = HCMV UL50-53 inh; B = GIV-Gai inh; C = Sa growth 42C; D = Sa growth 42C second temp
CCS(=O)(=O)c1nc(NC(C)=O)n[nH]1
  A: -11.9 | B: 110.0 | C: 96.2 | D: 91.7
CC(C)(C)C1C/C(=C/c2ccco2)C(=O)/C(=C/c2ccco2)C1 (stereo unspecified)
  A: x | B: 151.3 | C: 96.5 | D: 65.5
COc1nnc(-c2ccc(Cl)cc2)c2ccccc12
  A: -12.2 | B: 105.6 | C: x | D: x
O=C1SC(Nc2ccccc2)C(=O)N1c1ccccc1 (stereo unspecified)
  A: -6.5 | B: 101.3 | C: 106.3 | D: 89.5
Cc1ccc(Oc2ncccc2NC(=O)c2ccco2)c2c1CCC2
  A: -5.2 | B: 106.7 | C: 113.3 | D: 94.7
COC(=O)c1ccc(CSc2nc3ccncc3n2C(C)C(=O)OC)cc1 (stereo unspecified)
  A: -1.8 | B: 106.6 | C: 100.3 | D: 83.1
Cc1ccc(CNC(=O)c2ccc3c(c2)N(Cc2ccccc2Cl)C(=O)CS3)cc1
  A: -11.5 | B: 100.5 | C: 107.5 | D: 83.0

Compound activity from PubChem.
